Compound activity: PubChem, several laboratories
PhoP inhibition – inhibitors of PhoP regulon expression, primary screen, Salmonella Typhimurium, GFP reporter (AID 1863); S. Typhimurium PhoP-regulated promoter GFP reporter, 4 h; higher % means a stronger effect; inhibition, % at 50 µM, or IC50 in µM where a hit was titrated; 300,000 compounds, 0.16% hits;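 active = inhibition over 29.93%, a cutoff 3 SD above the screen mean, later confirmed by dose response; inconclusive = inhibition over 29.93% but no dose response follow-up; inactive = inhibition at most 29.93% or unconfirmed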;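 note: 0% = low Mg2+ inducing control and 100% = high Mg2+ repressing control; strong numbers were not always called active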
CSM14.1 death rescue – rescue of cells from ER stress-induced death, primary screen, 384-well, CSM14.1, thapsigargin, ATP luminescence (AID 1222). CSM14.1 thapsigargin-induced death rescue, ATP luminescence; higher % means a stronger effect. cellular ATP content (survival), % at 20 µM; hits with a dose series show EC50 in µM. 190,000 tested, under 10 active;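 active = EC50 below 50 µM in the dose-response confirmation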;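 note: death triggered by thapsigargin at about 15 µM added after 2 h compound pretreatment; cell ATP read after overnight thapsigargin exposure of roughly 18 to 22 hours; normalized against plate controls of thapsigargin alone and 5% DMSO vehicle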
Ins promoter up – MIN6 insulin promoter up-regulation; 190,000 compounds, 0.3% hits; MIN6 insulin promoter-GFP reporter, high-content imaging; active compounds read high; z-score at 5 µM;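 active = z-score above 3 at 5 µM with at least 500 cells counted in the well; inconclusive = wells under 500 cells, flagged as cytotoxic or low count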
Large T inhibition – SV40 large T antigen inhibitors, biochemical (AID 1903) | 310,000 compounds, 0.39% hits | SV40 large T antigen ATPase/helicase inhibition assay; higher % means a stronger effect | inhibition, % at 20 µM; hits with a dose series show IC50 in µM; in the data active = a potency from the dose series; inconclusive = inhibition mostly from about 32% at the one dose, without a potency; inactive = the rest, 99 in 100 with inhibition below about 32%; note: strong numbers were not always called active
West Nile antiviral – inhibition of WNV-induced cytopathic effect – cell-based, CPE readout (AID 1621). West Nile virus-infected cells, CPE inhibition; higher % means a stronger effect. CPE inhibition, % at 10 µM, or IC50 in µM where a hit was titrated. 290,000 compounds, 0.02% hits; in the data active = a potency from the dose series; inconclusive = CPE inhibition mostly from about 3.7% at the one dose, without a potency; inactive = the rest, 99 in 100 with CPE inhibition below about 2.2%; note: strong numbers were not always called active
TNAP activation fold – human TNAP enzyme activators, primary screen, biochemical, luminescent, no phosphate acceptor, uHTS (AID 1001); purified TNAP, luminescent activation assay, no phosphate acceptor; higher activation fold means a stronger effect; activation fold at 20 µM; hits with a dose series show EC50 in µM; 200,000 compounds, 0.03% hits; in the data active = activation fold from about 3, or a potency from the dose series; inactive = the rest, 99 in 100 with activation fold below about 1.6; note: many of its hits are not listed in these tables
RSV antiviral HEp-2 – RSV antiviral activity via CPE protection, HEp-2 cells, primary 10 µM value included (AID 2391). HEp-2 cells, RSV-induced CPE inhibition; higher % means a stronger effect. CPE inhibition, % at 10 µM; hits with a dose series show IC50 in µM. 310,000 compounds, 0.13% hits; in the data active = a potency from the dose series; inconclusive = CPE inhibition mostly from about 23% at the one dose, without a potency; inactive = the rest, 99 in 100 with CPE inhibition below about 21%; note: strong numbers were not always called active
Ins promoter up cell count – second read-out of Ins promoter up, no call of its own (marks repeat the call); cell count; measured here: cytotoxicity, nuclei count;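 total cells summed across four imaged fields per well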
* hit, by the source's call; i = inactive; ? = inconclusive; nt = no result given.

Values run as follows: PhoP inhibition	CSM14.1 death rescue	Ins promoter up	Ins promoter up cell count	Large T inhibition	West Nile antiviral	TNAP activation fold	RSV antiviral HEp-2
1. O=C(Nc1ccc(Cl)cc1)OC(CN1CCCCC1)C(F)(F)F (stereo not given)
→ 6%	-2.4%	nt	nt	2%	0.1%	1.1	1.4%
2. COc1c(N2CCN(C(=S)Nc3ccccc3)C(C)C2)c(F)cc2c(=O)c(C(=O)O)cn(C3CC3)c12 (stereo not given)
→ ?	5.6%	-0.71	1591	10%	0.1%	0.9	nt
3. Cc1cccc(CSCCNC(=O)CSCc2ccc([N+](=O)[O-])cc2)c1
→ 0%	-1.9%	-1.4	1458	0%	-0.2%	1	1.5%
4. O=C(CNc1cccc2ccccc12)N/N=C/C(Br)=C/c1ccccc1
→ 19%	-0.9%	0.15	1555	-5%	1.6%	1.1	1.7%
5. COc1ccc(CCNC(=O)c2ccccc2NC(=O)c2ccco2)cc1OC
→ -4%	-1.1%	-0.3	1546	5%	?	1.1	2.1%
6. O=C(CSCc1cccc(Cl)c1)NCc1ccc2c(c1)OCO2
→ 18%	-0.3%	0.27	1375	5%	0.0%	1.2	-0.2%
7. CCCCCCCCCCn1cc(C(C)=O)c(=O)[nH]c1=O
→ 0%	-1.7%	nt	nt	1%	-0.1%	1	1.2%
8. Cc1cccn2c(/C=N/OCc3ccc(F)cc3)c(-c3ccc(Cl)cc3)nc12
→ -8%	0.0%	0.41	1433	17%	-0.2%	1	1.3%
9. CCn1c(N)c(C(=O)NCc2cccnc2)sc1=S
→ -4%	0.4%	nt	nt	2%	1.1%	1.1	nt
10. NS(=O)(=O)c1ccc(CCNC(=O)CSc2ccccc2)cc1
→ 2%	-0.8%	0.41	1478	6%	1.8%	0.9	1.0%
11. O=C(N/N=C/c1ccc(O)c(O)c1)c1ccc(CSc2cccc3cccnc23)cc1
→ 1%	1.3%	-0.63	908	5.4µM*	?	0.4	3.1%
12. Nc1c(C(=O)NCC2CCCO2)c2nc3ccccc3nc2n1-c1ccccc1 (stereo not given)
→ 1%	-3.1%	0.12	1475	1%	0.2%	1.2	1.4%
13. O=C(CCN1C(=O)c2ccccc2C1=O)N1CCN(C2c3ccccc3-c3ccccc32)CC1
→ 7%	-0.9%	-0.13	1988	1%	-0.3%	1.1	0.2%
14. COc1ccc(NC(=O)c2ccc3c(=O)n(Cc4ccco4)c(=S)[nH]c3c2)c(OC)c1
→ -4%	0.4%	0.04	1474	12%	0.5%	1	5.4%
15. COc1ccc(NC2=Nc3cccc4cccc2c34)cc1OC
→ -5%	-0.6%	-0.05	1535	10%	-0.1%	0.8	5.1%
16. Oc1[nH]c2ccccc2c1N=Nc1ccc(C(F)(F)F)cn1
→ -1%	-1.4%	-0.34	1683	9%	nt	1	1.5%
17. COCCN(C(=O)C(C)C)c1nnc(-c2ccc(C)cc2)s1
→ -2%	-0.3%	1.2	1560	5%	-0.5%	1	1.3%
18. CCCn1c(Sc2nc3c(c(=O)[nH]c(=O)n3C)n2CCC)nc2c1c(=O)[nH]c(=O)n2C
→ 2%	1.5%	0.72	1484	-6%	0.2%	1	1.4%
19. COc1cc(NS(C)(=O)=O)c(OC)cc1NC(=O)c1cccc(F)c1
→ 10%	4.6%	-0.86	942	8%	0.1%	1.1	0.8%
20. Cc1sc(CO)c(Sc2ccccc2)c1C(=O)O
→ -18%	-0.3%	nt	nt	7%	nt	1	1.0%
21. O=[N+]([O-])c1ccc(N/N=C\c2cccn2-c2ccccc2)nc1
→ 11%	0.4%	0.7	1712	1%	nt	0.7	2.8%
22. CCOc1ccc(N2CC(C(=O)NC(C)C)CC2=O)cc1 (stereo not given)
→ -5%	-1.2%	nt	nt	-2%	0.2%	1.1	0.0%
23. CCOc1ccc2nc(SCC)[nH]c2c1
→ 19%	-0.8%	-0.36	1536	-2%	-0.1%	1.1	0.8%
24. O=C(NC(=S)NC1CCSC1=O)c1ccccc1Cl (stereo not given)
→ 13%	0.6%	-0.49	1507	6%	0.3%	1	1.7%
25. CN1C(=O)/C(=C/c2ccccc2OCc2ccccc2F)NC1=S
→ 3%	-0.9%	-0.29	1578	0%	nt	1.1	2.4%
26. CCC(C)NC(=O)C1CC(c2ccc(OC)cc2)=NO1 (stereo not given)
→ -5%	0.8%	-0.76	1508	7%	0.6%	1	nt
27. Cc1ccccc1NC(=O)Cc1c(O)c2ccccc2[nH]c1=O
→ -6%	-0.8%	-0.4	1540	8%	0.2%	1.1	-1.2%
28. O=C(NCc1ccccn1)c1cccc([N+](=O)[O-])c1
→ 19%	1.8%	-0.57	1611	15%	0.1%	1.1	-1.3%
29. Cc1ccc(-c2nc3ccccc3s2)cc1NC(=S)NC(=O)/C=C/c1ccco1
→ -1%	0.0%	-0.26	1304	5%	0.4%	1.1	5.0%
30. C[C@H](NC(=O)NC1CCCc2ccccc21)C(=O)O (stereo not given in full)
→ -7%	-0.9%	0.09	1576	-2%	0.1%	1.1	0.7%
31. O=C(NCCN1CCOCC1)c1ccccc1[N+](=O)[O-]
→ -5%	-2.7%	0.51	1280	6%	-0.1%	1.1	1.0%
32. Cc1nc2nc(C)c(CCC(=O)NC(C)c3ccc4c(c3)OCCO4)c(C)n2n1 (stereo not given)
→ -9%	-2.1%	0.13	1642	22%	-0.5%	1.1	0.6%
33. Cc1cc(C)c(S(=O)(=O)NCC2CCC(C(=O)NCc3ccc4c(c3)OCO4)CC2)c(C)c1 (stereo not given)
→ -4%	-0.1%	-0.57	1685	-18%	-0.6%	1.1	1.1%
34. CS(=O)(=O)N1N=C(c2ccc(Br)cc2)CC1c1ccc2c(c1)OCO2 (stereo not given)
→ -7%	2.0%	1.2	1621	-3%	-0.3%	1.2	2.7%
35. Cc1ccccc1OCC(=O)NNC(=O)Nc1ccc(Cl)cc1
→ -5%	-0.4%	0.18	1423	-4%	2.3%	1.1	0.3%
36. CC(C)=CCc1c(C)nc2ccccc2c1C(=O)O
→ -6%	-7.8%	-0.46	1585	8%	0.3%	1.1	1.1%
37. CCC(C)(C)NC(=O)CC(c1ccc(OC)cc1)n1cccc1 (stereo not given)
→ -2%	1.2%	0.36	1411	3%	-0.2%	1.1	2.5%
38. O=C(Nc1ccc2c(c1)OCCO2)c1cc2sccc2n1Cc1ccccc1
→ -1%	-0.6%	-0.87	1549	8%	-0.8%	0.9	?
39. O=C(O)C1CCN(S(=O)(=O)c2cccnc2)CC1
→ 2%	1.1%	nt	nt	8%	0.4%	1	1.0%
40. O=C(CCN1CCOCC1)Nc1ccccc1
→ 8%	0.4%	-0.29	1518	11%	0.2%	1	0.4%
41. C=CCNc1cnn(-c2ccc(C)cc2)c(=O)c1Cl
→ 2%	1.0%	nt	nt	7%	0.0%	1	1.7%
42. Cn1c(CCN2CCN(c3ccccc3)CC2)nc2cc(NC(=O)c3ccco3)ccc21
→ 6%	1.0%	-0.65	919	19%	nt	1.1	1.6%
43. CCC(C)C(NS(=O)(=O)c1ccc(C)cc1)C(=O)Oc1ccc2c3c(c(=O)oc2c1)CCC3 (stereo not given)
→ -1%	-1.7%	-0.24	1534	2%	0.9%	1.1	1.4%
44. Cc1nc(NC(=O)c2ccccc2)sc1-c1csc(Nc2cccc(F)c2)n1
→ -9%	1.1%	nt	nt	12%	-1.2%	1.1	0.8%
45. CCn1c2ccccc2c2cc(NC(=O)C(C)C)ccc21
→ 3%	-0.8%	0.66	1566	9%	0.7%	1	3.7%
46. O=C(Cc1ccccc1)N(c1ccc(F)cc1)C1C=CS(=O)(=O)C1 (stereo not given)
→ -1%	-2.9%	0.3	1892	-3%	-0.5%	1.1	0.0%
47. COC(=O)C1(S(=O)(=O)c2ccc(C)cc2)CCOCC1
→ -1%	-0.9%	0.35	1537	6%	-0.7%	1.1	-0.7%
48. COc1ccc(N2CCc3c(C)nc4c(OC)cc(OC)cc4c32)c(OC)c1
→ -13%	-1.0%	nt	nt	22%	nt	1.2	15%
49. CCOC(=O)C1=C(NC(=S)NC(=O)c2ccccc2)c2ccccc2CC1(C)C
→ 5%	i	nt	nt	-2%	0.1%	1	7.1%
50. COc1ccc(CCN2CC(O)=C(c3nc(C)cs3)C2=N)cc1OC
→ -6%	-0.8%	0.02	1628	11%	0.0%	1.1	0.8%
51. COc1cc(C(=O)NCC(c2cccnc2)N2CCN(C)CC2)cc(OC)c1OC (stereo not given)
→ -5%	-1.8%	nt	nt	4%	0.4%	1	0.5%
52. Cc1cc2c(c(=O)o1)C1(C(=O)N(CC(=O)O)c3ccccc31)C(C#N)=C(N)O2 (stereo not given)
→ -21%	-2.6%	0.54	1706	8%	0.1%	1.1	1.5%
53. Cc1nn2c(N3CCN(C(=O)c4ccco4)CC3)cc(C(C)(C)C)nc2c1-c1ccc(Cl)cc1
→ 5%	-0.7%	-0.15	1521	-5%	?	1.1	nt
54. COCCn1c(Cc2ccccc2)nnc1SCc1nc2ccccc2c(=O)[nH]1
→ -4%	2.5%	-0.05	1602	11%	-0.2%	1	3.6%
55. Cc1ccc2occ(/C=C/C(=O)c3ccccc3O)c(=O)c2c1
→ 2%	-1.8%	0.12	1455	2%	-0.3%	1.1	5.7%
56. CCC(C)n1c(NC(=O)c2ccccc2)c(C#N)c2nc3ccccc3nc21 (stereo not given)
→ nt	1.4%	nt	nt	nt	0.9%	0.9	?
57. CC(=O)C1=C(C)OC(N)=C(C#N)C1c1cc2cccc(C)c2nc1Cl (stereo not given)
→ -4%	-0.8%	-0.22	1625	6%	0.4%	1.1	4.7%
58. CC1(C)Oc2ccc(NC(=O)c3ccco3)cc2O1
→ 6%	-1.6%	0	1559	13%	-0.2%	1.1	3.1%
59. COc1ccc(C(=O)O/N=C/c2ccc(S(=O)c3ccc(Cl)cc3)nc2)cc1 (stereo not given)
→ -3%	4.2%	-0.06	1503	1%	0.1%	1.1	0.0%
60. COc1ccc(Cc2nc3ccc(S(=O)(=O)N4CCOCC4)cc3[nH]2)cc1OC
→ -3%	-0.2%	-0.47	1596	9%	-0.3%	1.1	2.9%

Next section:
Values run as follows: PhoP inhibition	CSM14.1 death rescue	Ins promoter up	Ins promoter up cell count	Large T inhibition	West Nile antiviral	TNAP activation fold	RSV antiviral HEp-2
61. COc1ccc(OC)c(N2CC(O)=C(c3nc4ccccc4s3)C2=N)c1
→ 16%	6.5%	0.75	1290	-3%	-0.4%	1	5.5%
62. Cc1sc2nc(SCc3ccccc3)n(Cc3ccco3)c(=O)c2c1C
→ -6%	-0.6%	0.67	1569	14%	2.6%	1.1	-1.3%
63. CCn1c(CNc2ccc(OC)cc2)nnc1SCC(=O)N1CCCc2ccccc21
→ 3%	-1.1%	0.48	1046	?	-0.8%	1.1	2.0%
64. CN(C)c1ccc(/C=c2\sc3nc(-c4ccccc4)nn3c2=O)cc1
→ -17%	-1.0%	0.16	1562	10%	nt	1	nt
65. CCS(=O)(=O)NCC(c1cccnc1)N1CCN(c2ccccc2F)CC1 (stereo not given)
→ 1%	-6.3%	-0.33	1652	14%	0.1%	1.1	1.2%
66. CN(C)c1ccc(/C=N/NC(=S)NCc2ccccc2)cc1
→ 15%	-0.6%	-0.41	1585	20%	-0.7%	0.9	7.0%
67. CC1CCCC(C)N1C(=O)Cn1cc(/C=C2/C(=O)Nc3ccccc32)c2ccccc21 (stereo not given)
→ 16%	0.7%	-0.27	889	3%	0.1%	0.8	4.4%

Another view of some results above.
[66] CN(C)c1ccc(/C=N/NC(=S)NCc2ccccc2)cc1
[67] CC1CCCC(C)N1C(=O)Cn1cc(/C=C2/C(=O)Nc3ccccc32)c2ccccc21 (stereo not given)
Compound	66	67
PhoP inhibition	15%	16%
CSM14.1 death rescue	-0.6%	0.7%
Ins promoter up	-0.41	-0.27
Ins promoter up cell count	1585	889
Large T inhibition	20%	3%
West Nile antiviral	-0.7%	0.1%
TNAP activation fold	0.9	0.8
RSV antiviral HEp-2	7.0%	4.4%

Some of the compounds tested; the hit share may differ from the screen's.
